Screening data (PubChem BioAssay)
KCNQ2 pot = KCNQ2 (rat) channel potentiation; 310,000 tested, 0.54% active; B-score at 10 µM; CHO-K1 KCNQ2, FluxOR thallium flux fluorescence; active compounds read high; AID 2239; O88943;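 active = fluorescence ratio B-score at least 3 SD of library B-scores, with initial fluorescence B-score within 3 SD, cut at about 5.3 in these data; same plate scores as AID 2156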;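 note: B-score of peak minus minimum over baseline fluorescence ratio after K+ and Tl+ stimulus; positive B-score means potentiation of KCNQ2 with more thallium influx and brighter signal; only the inactives scoring about 0 or higher are listed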
Target sequence (O88943 whole entry, looked up): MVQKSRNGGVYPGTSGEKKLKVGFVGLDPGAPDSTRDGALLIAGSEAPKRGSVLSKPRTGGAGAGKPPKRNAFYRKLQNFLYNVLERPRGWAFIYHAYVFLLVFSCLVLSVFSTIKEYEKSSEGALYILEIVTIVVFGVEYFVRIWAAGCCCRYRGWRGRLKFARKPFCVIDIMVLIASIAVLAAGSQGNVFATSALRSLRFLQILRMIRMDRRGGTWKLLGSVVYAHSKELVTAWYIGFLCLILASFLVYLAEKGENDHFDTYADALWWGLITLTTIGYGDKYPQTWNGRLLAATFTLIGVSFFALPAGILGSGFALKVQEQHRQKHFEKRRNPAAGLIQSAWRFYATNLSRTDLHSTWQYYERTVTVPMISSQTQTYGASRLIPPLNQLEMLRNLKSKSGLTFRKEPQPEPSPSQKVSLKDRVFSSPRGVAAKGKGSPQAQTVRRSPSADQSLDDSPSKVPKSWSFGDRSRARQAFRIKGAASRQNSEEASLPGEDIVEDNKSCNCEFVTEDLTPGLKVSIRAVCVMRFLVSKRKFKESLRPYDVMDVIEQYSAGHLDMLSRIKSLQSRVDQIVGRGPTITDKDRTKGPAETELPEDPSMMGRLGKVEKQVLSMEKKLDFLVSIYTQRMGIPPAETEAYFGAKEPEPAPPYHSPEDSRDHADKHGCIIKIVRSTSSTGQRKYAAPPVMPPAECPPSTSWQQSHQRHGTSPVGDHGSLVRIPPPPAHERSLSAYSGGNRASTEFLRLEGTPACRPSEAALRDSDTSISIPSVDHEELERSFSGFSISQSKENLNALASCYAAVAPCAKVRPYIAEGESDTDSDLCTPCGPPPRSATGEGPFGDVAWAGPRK
KCNQ2 pot baseline = also measured in KCNQ2 pot; calls as there; B-score; compound at 10 µM; measured here: initial fluorescence intensity artifact check;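 brightness before thallium and not channel activity; 0 = typical well and far values either way flag optical interference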
* = called active by the depositor.

Screening C=CCNC(=O)C1CCN(c2ccc(S(=O)(=O)N3CCOCC3)cc2Cl)CC1 returned KCNQ2 pot 1.3 and KCNQ2 pot baseline 0.63.
For Cc1cc(C)cc(N(CC(=O)NCc2ccco2)S(=O)(=O)c2ccccc2)c1 the results were KCNQ2 pot 1.2 and KCNQ2 pot baseline 1.3.
`Cc1noc(NS(=O)(=O)c2ccc(N/C=C\C(=O)c3ccc(Br)cc3)cc2)c1C` gave KCNQ2 pot 1.7 and KCNQ2 pot baseline -0.18.
Nc1nc2c(ncn2COCCO)c(=O)[nH]1 was read as KCNQ2 pot 0.04 and KCNQ2 pot baseline 4.3.
Cc1noc(C)c1C(=O)N1CCN(S(=O)(=O)c2ccc(F)cc2)CC1 was read as KCNQ2 pot 0.06 and KCNQ2 pot baseline 1.4.
Cc1ccc(-c2cc(C(=O)Nc3cc(C(=O)O)ccc3C)c3ccccc3n2)cc1 was read as KCNQ2 pot 0.4 and KCNQ2 pot baseline 0.15.
COc1cccc(NS(=O)(=O)c2ccc(-n3cccn3)cc2)c1 was read as KCNQ2 pot 0.77 and KCNQ2 pot baseline -0.5.
CCCCN(C)CCC(=O)Nc1ccc2c(c1)CCC2 was read as KCNQ2 pot 1.2 and KCNQ2 pot baseline 0.13.
`CN(C(=O)C1CCC(=O)N(CCCN2CCCC2=O)C1)C(C1CC1)C1CC1` (configuration not stated) gave KCNQ2 pot 0.87 and KCNQ2 pot baseline 0.54.
For CCCCc1ccc(NC(=O)N[C@H](C(=O)O)C(C)CC)cc1 (some centres not stated) the results were KCNQ2 pot 0.06 and KCNQ2 pot baseline 0.36.
For COc1ccc(CNS(=O)(=O)NCc2ccccc2F)cc1 the results were KCNQ2 pot 0.18 and KCNQ2 pot baseline -0.49.
For O=C(CSc1nnc(-c2ccccc2)n1Cc1ccccc1)N1CCOCC1 the results were KCNQ2 pot 1.1 and KCNQ2 pot baseline -2.
Screening CC(=O)c1c(N2CCCC2)[nH]c(-c2ccccc2)nc1=S returned KCNQ2 pot 1.9 and KCNQ2 pot baseline 1.6.
For CCOC1=C/C(=C/c2c(N)n3nc(CC(=O)N4CCCCC4)sc3nc2=O)C=CC1=O the results were KCNQ2 pot 0.38 and KCNQ2 pot baseline 3.6.
`CC(C)CCNC(=S)Nc1ccccn1` gave KCNQ2 pot 0.48 and KCNQ2 pot baseline -0.33.
`CC(C)(C)c1ccc(-n2ncc3c2CCCC3NC(=O)CCN2CCCCC2=O)cc1` (configuration not stated) gave KCNQ2 pot 1.6 and KCNQ2 pot baseline -2.2.
CC(=O)NNC(=O)c1sc(=S)n(C)c1C was read as KCNQ2 pot 0.14 and KCNQ2 pot baseline -1.5.
Screening CC(=O)N(NC(=O)c1ccccc1Cl)C1CC(=O)N(c2ccc(C)cc2)C1=O (configuration not stated) returned KCNQ2 pot 1.1 and KCNQ2 pot baseline 0.02.
Screening Cc1cc2oc(=O)cc(CSc3nc(N)cc(N)n3)c2cc1C(C)C returned KCNQ2 pot 0.03 and KCNQ2 pot baseline 0.09.
`COc1cc(C2(c3ccc(O)c(OC)c3)C(=O)N(C)c3ccc(C)cc32)ccc1O` gave KCNQ2 pot 0.09 and KCNQ2 pot baseline -1.3.
For O=C(CSc1nnc2ccc(-c3ccccn3)nn12)Nc1ccc(F)cc1F the results were KCNQ2 pot 0.32 and KCNQ2 pot baseline -0.38.
Cn1c(SCC(=O)NCC2CCCO2)nc2c([nH]c3ccccc32)c1=O (configuration not stated) was read as KCNQ2 pot 0.51 and KCNQ2 pot baseline -1.8.
Screening Cc1ccccc1OCC(=O)N/N=C/c1cccc2cccnc12 returned KCNQ2 pot 3.7 and KCNQ2 pot baseline 1.5.
`COc1ccc(N2CCN(CCNC(=O)Nc3cccc(C)c3C)CC2)cc1` gave KCNQ2 pot 2.3 and KCNQ2 pot baseline 0.25.
COc1ccc(C(=O)NCC2(c3ccccc3)CCOCC2)cc1 was read as KCNQ2 pot 2.3 and KCNQ2 pot baseline -0.54.
Screening O=c1c(Cl)nc2cc(Cl)ccc2n1CCNc1ncc(C(F)(F)F)cc1Cl returned KCNQ2 pot 1 and KCNQ2 pot baseline 0.92.
For COc1ccccc1CNC(=O)c1cc(S(=O)(=O)N2CCCC2)cn1C the results were KCNQ2 pot 1.4 and KCNQ2 pot baseline -1.2.
`COc1ccc(C2=NN(C(=O)c3ccncc3)C(c3ccccc3O)C2)cc1` (configuration not stated) gave KCNQ2 pot 1.6 and KCNQ2 pot baseline -0.99.
Screening COc1cc2c(cc1OC)C1Cc3ccc(OC)c(OC)c3CN1CC2 (configuration not stated) returned KCNQ2 pot 1.1 and KCNQ2 pot baseline 0.94.
`CCCn1c(C)nc2cc(Cl)c(N3CCN(c4nc(-c5ccc(C)cc5)cs4)CC3)cc21` gave KCNQ2 pot 0.85 and KCNQ2 pot baseline -2.4.
`O=C(/C=C/c1ccc(Cl)cc1Cl)NCCN1CCOCC1` gave KCNQ2 pot 0.33 and KCNQ2 pot baseline 1.5.
Screening Cc1cccc(C)c1NC(=S)Nc1ccccc1C(=O)NCc1ccco1 returned KCNQ2 pot 0.04 and KCNQ2 pot baseline 1.4.
CC1(C)NC(=O)N(CC(=O)Nc2nc(-c3ccc(F)cc3)cs2)C1=O was read as KCNQ2 pot 1.1 and KCNQ2 pot baseline 0.09.
For Cc1ccc(NC(=O)NC2CCN(CC(=O)Nc3nccs3)CC2)cc1 the results were KCNQ2 pot 0.53 and KCNQ2 pot baseline 1.1.
Screening CC(C)(C)c1ccc(C(=O)CC(=O)c2cc(Cl)ccc2O)cc1 returned KCNQ2 pot 1.6 and KCNQ2 pot baseline 0.76.
Screening COc1ccc(NC(=S)NC(NC(=O)c2ccccc2Cl)C(Cl)(Cl)Cl)c([N+](=O)[O-])c1 (configuration not stated) returned KCNQ2 pot 0.02 and KCNQ2 pot baseline -0.28.
O=c1cc(CN2CCOCC2)c2cc(Cl)ccc2o1 was read as KCNQ2 pot 1.1 and KCNQ2 pot baseline 0.51.
For COC(=O)C(CC(C)C)NC(=O)C(N)Cc1ccccc1 (configuration not stated) the results were KCNQ2 pot 0.53 and KCNQ2 pot baseline -0.9.
For CCO[C@@H]1OC(C(=O)N2CCN(C)CC2)=C[C@H](c2coc3ccccc3c2=O)[C@H]1CCCO the results were KCNQ2 pot 0.01 and KCNQ2 pot baseline -2.4.
Screening CCOC(=O)NC(Nc1cc(C)ccn1)(C(F)(F)F)C(F)(F)F returned KCNQ2 pot 0.8 and KCNQ2 pot baseline 0.
For CCCNC(=O)Nc1nccs1 the results were KCNQ2 pot 0.01 and KCNQ2 pot baseline -0.02.
Cc1cccc(N/C(N)=N/c2nc(C)cc(C)n2)c1 was read as KCNQ2 pot 2.1 and KCNQ2 pot baseline -0.01.
Screening Cc1ccc([C@@H]2[C@@H]3C(=O)N(C)C(=O)[C@@H]3[C@]3(Cc4ccccc4)C(=O)N(Cc4ccccc4)CC(=O)N23)o1 returned KCNQ2 pot 0.07 and KCNQ2 pot baseline -1.4.
`COc1ccc(NC(=O)c2cccc(OC(F)F)c2)cc1Cl` gave KCNQ2 pot 1.4 and KCNQ2 pot baseline -1.1.
Screening c1ccc(N2CCOCCOCCOCCOCCOCC2)cc1 returned KCNQ2 pot 1.5 and KCNQ2 pot baseline 0.49.
`COc1ccc(/C=N/NC(=O)CSc2ccccc2)cc1OC` gave KCNQ2 pot 0.31 and KCNQ2 pot baseline 0.1.
For COc1ccc(C(=S)N2CCCC2)cc1 the results were KCNQ2 pot 1.4 and KCNQ2 pot baseline 0.02.
`CC(C)(C)OC(=O)N1CCC(CNC(=O)Nc2ccccc2)CC1` gave KCNQ2 pot 0.26 and KCNQ2 pot baseline -0.67.
For CN(c1ccccc1C(=O)N1CCCC1)S(C)(=O)=O the results were KCNQ2 pot 1.3 and KCNQ2 pot baseline -0.16.
`CCN(Cc1ccc(OC)c(COC)c1)CC1CCCN(CCc2cccc(OC)c2)C1` (configuration not stated) gave KCNQ2 pot 0.77 and KCNQ2 pot baseline 0.79.
`CCOC(=O)C1=C(C)NC(=O)NC1c1ccoc1` (configuration not stated) gave KCNQ2 pot 1.2 and KCNQ2 pot baseline 1.9.
`CCn1c(=O)c2cc(C(=O)NCCN(C)C)sc2c2ccccc21` gave KCNQ2 pot 0.69 and KCNQ2 pot baseline -0.6.
For COc1ccc(C(=O)/C=C/Nc2ccc(S(=O)(=O)Nc3ncccn3)cc2)cc1 the results were KCNQ2 pot 1.1 and KCNQ2 pot baseline 0.48.
COc1cccc(Nc2nc(CC(C)=O)ns2)c1 was read as KCNQ2 pot 0.3 and KCNQ2 pot baseline 0.63.
Screening Cc1nc([N+](=O)[O-])c(C(=O)O)n1C returned KCNQ2 pot 0.61 and KCNQ2 pot baseline 0.13.
For CCc1cc(CNC(=O)CCc2nnc(Cc3cccc(C)c3)o2)on1 the results were KCNQ2 pot 0.15 and KCNQ2 pot baseline 0.59.
Screening CCN(C(=O)COC(=O)c1ccc(Cl)c(N)c1)C1CCS(=O)(=O)C1 (configuration not stated) returned KCNQ2 pot 0.31 and KCNQ2 pot baseline -1.3.
For CC(C)C[C@H](NC(=O)C1(c2ccccc2)CCN(C(=O)[C@H]2CSCN2C(=O)OC(C)(C)C)CC1)C(=O)O the results were KCNQ2 pot 0.07 and KCNQ2 pot baseline 2.4.
Cc1ccc(O)c(C(=O)CC(=O)c2cccc(F)c2)c1 was read as KCNQ2 pot 1.6 and KCNQ2 pot baseline 0.01.
For COC(=O)C1=C(C(=O)OC)[C@@H]2Nc3ccccc3[C@@]23C[C@@H](C(=O)OC)N(C(=O)NC2CCCCC2)C3=N1 the results were KCNQ2 pot 1.9 and KCNQ2 pot baseline -1.6.
For Nc1ccc2c(c1)C(=O)Cc1ccccc1S2 the results were KCNQ2 pot 0.49 and KCNQ2 pot baseline -1.5.
`CC(C)(Oc1ccc(CCNC(=O)c2ccc(-c3ccc(Cl)cc3)o2)cc1)C(=O)O` gave KCNQ2 pot 0.05 and KCNQ2 pot baseline 0.53.
For O=C(Nc1cccc(C(=O)N2CCCCC2)c1)c1ccccc1Br the results were KCNQ2 pot 0.57 and KCNQ2 pot baseline 0.86.
`COc1cccc(C2=NOC(C(=O)NCC3CCCO3)C2)c1` (configuration not stated) gave KCNQ2 pot 1.1 and KCNQ2 pot baseline 1.9.
Screening Cc1ccc(C(=O)OC(C)CN2C(C)CCCC2C)cc1 (configuration not stated) returned KCNQ2 pot 0.45 and KCNQ2 pot baseline -0.54.
`CCOCCCn1c(NN)nc2ccccc2c1=O` gave KCNQ2 pot 0.27 and KCNQ2 pot baseline -0.97.
Screening CN(C(=O)c1ccc2nc(N)sc2c1)c1ccccc1 returned KCNQ2 pot 0.1 and KCNQ2 pot baseline 0.01.
CCCS(=O)(=O)c1nc(S(=O)(=O)c2ccc(C)cc2)c(N2CCN(CC)CC2)s1 was read as KCNQ2 pot 0.11 and KCNQ2 pot baseline 0.54.
For CCCCN(C)CCNC(=O)CCNC(=O)Cn1ccc2ccccc2c1=O the results were KCNQ2 pot 0.1 and KCNQ2 pot baseline 0.01.
Screening O=C(COc1ccc2ccccc2c1)Nc1cccnc1Cl returned KCNQ2 pot 0.25 and KCNQ2 pot baseline 1.1.

Some of these compounds in order of count of non-hydrogen atoms, ascending:
For Nc1ccc2c(c1)C(=O)Cc1ccccc1S2 the results were KCNQ2 pot 0.49 and KCNQ2 pot baseline -1.5.
Screening CN(C(=O)c1ccc2nc(N)sc2c1)c1ccccc1 returned KCNQ2 pot 0.1 and KCNQ2 pot baseline 0.01.
For CCCCN(C)CCNC(=O)CCNC(=O)Cn1ccc2ccccc2c1=O the results were KCNQ2 pot 0.1 and KCNQ2 pot baseline 0.01.

Later entries.
Screening CCNC(=S)NS(=O)(=O)c1ccc(Cl)cc1 returned KCNQ2 pot 0.22 and KCNQ2 pot baseline 0.12.
`COCCCNC(=O)c1ccc(Cn2c(=O)c3ccccc3n(Cc3cc(C)ccc3C)c2=O)cc1` gave KCNQ2 pot 0.57 and KCNQ2 pot baseline 0.15.
`CCN(CC)C(=O)CSc1nnc(-c2ccccn2)n1-c1ccccc1OC` gave KCNQ2 pot 0.43 and KCNQ2 pot baseline 2.9.
Screening O=C1NC2(CCCCCC2)Oc2ccccc21 returned KCNQ2 pot 1.7 and KCNQ2 pot baseline -0.99.
`O=C(Nc1ccnn1C1CCN(C2CCC2)CC1)c1ccccc1` gave KCNQ2 pot 1 and KCNQ2 pot baseline 0.02.
Screening CSCc1c(C(=O)Nc2ccc(N3CCOCC3)cc2)oc2ccccc12 returned KCNQ2 pot 1.4 and KCNQ2 pot baseline 1.1.
For Cc1nn(Cc2ccccc2)c(C)c1NC(=O)CSc1nc2c(c(C(F)(F)F)n1)CCc1ccccc1-2 the results were KCNQ2 pot 2.7 and KCNQ2 pot baseline 0.21.
Cc1cccc(C(=O)Nc2ccnc(-c3ccncc3)n2)c1 was read as KCNQ2 pot 1.1 and KCNQ2 pot baseline -0.16.
For COC(=O)N1CCN(CCc2ccccc2)CC1 the results were KCNQ2 pot 0.08 and KCNQ2 pot baseline 1.8.

A section from further up, for reference:
Screening O=C(COc1ccc2ccccc2c1)Nc1cccnc1Cl returned KCNQ2 pot 0.25 and KCNQ2 pot baseline 1.1.
Screening CCNC(=S)NS(=O)(=O)c1ccc(Cl)cc1 returned KCNQ2 pot 0.22 and KCNQ2 pot baseline 0.12.
`COCCCNC(=O)c1ccc(Cn2c(=O)c3ccccc3n(Cc3cc(C)ccc3C)c2=O)cc1` gave KCNQ2 pot 0.57 and KCNQ2 pot baseline 0.15.
`CCN(CC)C(=O)CSc1nnc(-c2ccccn2)n1-c1ccccc1OC` gave KCNQ2 pot 0.43 and KCNQ2 pot baseline 2.9.
Screening O=C1NC2(CCCCCC2)Oc2ccccc21 returned KCNQ2 pot 1.7 and KCNQ2 pot baseline -0.99.
`O=C(Nc1ccnn1C1CCN(C2CCC2)CC1)c1ccccc1` gave KCNQ2 pot 1 and KCNQ2 pot baseline 0.02.
Screening CSCc1c(C(=O)Nc2ccc(N3CCOCC3)cc2)oc2ccccc12 returned KCNQ2 pot 1.4 and KCNQ2 pot baseline 1.1.

This is a subset (hit frequency here may not be typical).
